From PubChem BioAssay
UCH37 inh – human UCH37 deubiquitinating enzyme inhibition | inhibition, % (test concentration not listed) | purified proteasome/UCH37, Ub-AMC cleavage fluorescence | AID 588478 | 330,000 compounds, 0.33% hits | Q9Y5K5;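 active = mean of two replicates above 20%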;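 also: 0% = compound-free wells with enzyme and 100% = wells lacking proteasome; stock transfer was 100 nL into about 20 µL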
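assay system = human UCH37 enzyme supplied as purified proteasome complex | amount = proteasome at 0.15 nM in the dispensed enzyme solution | schedule = 30 min compound-proteasome preincubation then 25 min substrate reaction, room temperature | measured by = fluorescence, ex 355 nm, em 460 nm | benchmarks = no-proteasome wells (full inhibition) and compound-free wells (no inhibition)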
HNF4A DNA FP – change in binding of human HNF4 alpha to DNA. P41235. AID 1224865. 360,000 compounds, 0.3% hits. activity change, % at 10 µM. HNF4a-FITC DNA binding, fluorescence polarization, 1 h; in the data active = activity change above about 30%, passing the limit was not always enough;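 also: controls were the assay level and a saturating level of protein; the project sought stronger binding though the title names inhibitors; some compounds called inactive have numbers as strong as hits; positive values seem to mean higher polarization but the record does not say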
Ecoli growth – inhibitors of Escherichia coli growth. 330,000 compounds, 0.21% hits. OD600 absorbance (concentration not given with the values). OD600, 23 h; active compounds read low. AID 1053175;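 active = OD600 absorbance below the run mean of sample wells minus 3.6 SD, in any replicate, cut at about 0.56 in these data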;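 also: stock transfer was 300 nL into about 60 µL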
ALR inh – human ALR oxidase inhibition via reduced H2O2; 290,000 compounds, 3.8% hits; inhibition, % (no concentration beside the values); purified ALR, DTT oxidation, H2O2 HRP-luminol luminescence; AID 485317;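 active = mean and each replicate at 75% or more; inconclusive = only one of the two met; inactive = neither met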;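 also: stock transfer was 7.5 nL into about 7.5 µL; 0% = neutral wells and 100% = wells with inactivated enzyme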
Target sequence (P55789 whole entry, looked up): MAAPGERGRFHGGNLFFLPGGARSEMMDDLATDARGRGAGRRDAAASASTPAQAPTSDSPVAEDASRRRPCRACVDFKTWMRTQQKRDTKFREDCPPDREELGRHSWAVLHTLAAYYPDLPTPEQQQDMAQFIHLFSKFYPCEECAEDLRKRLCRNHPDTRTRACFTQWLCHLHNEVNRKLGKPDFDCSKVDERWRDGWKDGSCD
rRNA inh HTS – inhibits bacterial ribosomal RNA function over humanized ribosomes; E. coli WT GFP vs humanized-ribosome RFP mutants, fluorescence, 24 h; active compounds read low; DMSO median 0, no signal -100; GFP signal change (wild-type ribosome), % (no concentration beside the values); 350,000 compounds, 1.6% hits;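 active = significant combined selectivity score with lowered wild-type GFP, culture density cut under 30%, mutant RFP and density less affected; inactive = any of these conditions unmet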; also: one replicate is shown; some compounds called inactive have numbers as strong as hits
FGF22 binding – FGF22 (human) thermal shift binding; Q9HCT0; recombinant FGF22 thermal shift, SYPRO orange fluorescence; percent of sucrose octasulfate shift, DMSO zero; calls only at 9.99 µM; 340,000 compounds, 1.5% hits; AID 651658;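 active = melting point raised past a set limit in the mean and every replicate; inconclusive = no clear call; three in four hits are not shown here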
Target sequence (Q9HCT0 whole entry, looked up): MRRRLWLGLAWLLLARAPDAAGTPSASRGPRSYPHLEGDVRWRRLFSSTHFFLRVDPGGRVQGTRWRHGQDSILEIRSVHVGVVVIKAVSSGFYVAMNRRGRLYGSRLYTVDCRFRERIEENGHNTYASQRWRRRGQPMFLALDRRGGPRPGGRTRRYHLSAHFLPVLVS
Beta2AR agonist – human beta-2 adrenergic receptor agonism by FAP. Am2.2-beta2AR cells, FAP receptor internalization, flow cytometry; reference of the scale not given here. P07550. response, % (concentration not given with the values). AID 504454. 340,000 compounds, 0.43% hits;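 active = response above a set limit, near 3 SD of response in nonfluorescent compounds, cut at about 42% in these data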;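 also: stock transfer was 100 nL into about 11 µL; a reference agonist was the positive control; negative values mostly stem from fluorescent compounds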
Target sequence (P07550 whole entry, looked up): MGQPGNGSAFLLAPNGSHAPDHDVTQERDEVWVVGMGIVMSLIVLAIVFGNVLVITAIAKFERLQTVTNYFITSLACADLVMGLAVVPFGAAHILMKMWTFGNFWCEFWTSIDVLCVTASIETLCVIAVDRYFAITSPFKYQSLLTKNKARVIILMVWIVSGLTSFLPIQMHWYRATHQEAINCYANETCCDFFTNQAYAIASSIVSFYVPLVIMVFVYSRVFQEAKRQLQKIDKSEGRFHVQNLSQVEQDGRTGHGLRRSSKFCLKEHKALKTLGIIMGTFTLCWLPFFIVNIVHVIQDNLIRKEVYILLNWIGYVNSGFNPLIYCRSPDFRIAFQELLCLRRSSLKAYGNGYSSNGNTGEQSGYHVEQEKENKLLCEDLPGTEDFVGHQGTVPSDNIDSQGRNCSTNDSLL
rRNA inh HTS OD600 – further read-out of rRNA inh HTS, marked with its call; OD600 change, %; measured here: OD600 growth;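 optical density of the mix in the first replicate; 0 = DMSO median and -100 = no signal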
rRNA inh HTS RFP – second read-out of rRNA inh HTS, no call of its own (marks repeat the call); RFP signal change, %; measured here: RFP humanized mutant strains;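 first replicate; 0 = DMSO median and -100 = no signal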
* hit, by the source's call; i = inactive; ? = inconclusive; nt = not tested or not shown; & = joins results of further samples. An excerpt (hit frequency here may not be typical).

SMILES	UCH37 inh	HNF4A DNA FP	Ecoli growth	ALR inh	rRNA inh HTS	rRNA inh HTS OD600	rRNA inh HTS RFP	FGF22 binding	Beta2AR agonist
CCC(=O)N1N=C(c2cccs2)CC1c1ccc(C)cc1 (stereo unspecified)	-18	7.4	0.67	-3	-32	-62	4.9	i	-5
COc1ccc2oc(=O)c(-c3ccccc3C(=O)N3CCOCC3)cc2c1	-154	-5.0	0.68	-13	nt	nt	nt	nt	-7
COc1cc2c(cc1OC)CN(CC(=O)Nc1ccc(C)cc1)CC2	1.3	-1.0	0.71	-15	0	0	2.5	i	2
Cc1c(C(=O)N2CCCCC2)c(S(=O)(=O)NCc2ccc(N(C)C)cc2)c(C)n1C	0.9	-2.5	0.72	98*	-3	1	-2.0	i	-5
CCCc1sc(N)nc1-c1ccc(C)cc1	2.3	0.3	0.65	78*	nt	nt	nt	nt	-11
O=C(NC1CCCCC1)c1cccc(S(=O)(=O)N2CCCCC2)c1	6.9	1.2	0.7	nt	0	-8	-1.4	i	-4
COc1ccc(S(=O)(=O)NCCCc2ccccc2)cc1	4.0	-3.8	0.68	-3	-26	-24	-4.5	i	1
Cc1ccc2nc(SCc3nnc(-c4cccs4)o3)[nH]c2c1	0.0	1.2	0.64	-7	nt	nt	nt	nt	-6
CCCCNC(=O)C1(N2C(=O)c3ccccc3C2=O)CCCC1	0.2	-5.1	0.66	nt	16	18	0.0	nt	nt
CCC(c1nnc(SCC(=O)Nc2cccc(S(N)(=O)=O)c2)n1-c1ccc(OC)cc1)N(C)C (stereo unspecified)	2.9	2.8	0.68	-4	7	2	-0.4	i	-4
CC1(C)N([O-])c2cc([N+](=O)[O-])ccc2[N+]1=O	57*	nt	0.67	47	-12	9	-6.0	i	3
CCN(CCn1cccn1)Cc1ccccc1OCC(O)CN1CCc2ccccc2C1 (stereo unspecified)	1.5	-4.7	0.69	8	12	4	-4.8	i	-7
COc1ccc(/C=N/NC(=S)NCc2ccccc2)cc1OC	nt	0.4	nt	3	nt	nt	nt	nt	7
Cc1ccc(NC(=O)Nc2cccnc2)cc1Cl	2.2	-3.3	0.55	7	-23	-39	-1.3	i	1
Cc1nn(-c2cccc([N+](=O)[O-])c2)c(N)c1-c1ccccc1	3.3	-2.8	0.67	20	-10	-13	-5.3	i	-8
O=C(CSc1n[nH]c(-c2ccncc2)n1)Nc1ccccc1	2.5	-2.2	0.65	5	3	2	-1.7	i	-1
Cc1c(C(=O)NCCSCc2ccccc2Cl)cccc1[N+](=O)[O-]	-1.7	-0.6	0.7	-2	nt	nt	nt	nt	-10
Cc1ccc(/C=N/n2nnnc2N)cc1	nt	2.1	nt	2	8	5	1.4	i	-5
COC(=O)C1=C(Nc2ccc(OC)cc2)C=C(C)C(C(=O)OC)C1c1ccc(C)cc1 (stereo unspecified)	1.7	-1.1	0.8	-17	nt	nt	nt	nt	7
CC(C)(C)NS(=O)(=O)c1ccc(NC(=S)NC(=O)C2CCC2)cc1	nt	-0.9	nt	7	-7	-9	0.7	i	-1
COc1cc(C(=O)Nc2c(C(=O)O)[nH]c3ccc(Br)cc23)cc(OC)c1OC	4.6	-1.1	0.64	39	-5	1	-0.9	i	-6
C=CCn1c(SCC(=O)N(CCO)CCO)nc2sc3c(c2c1=O)CCC3	4.1	-1.8	0.68	36	-1	10	-4.9	i	-5
CCOC(=O)c1[nH]c2cc3c(cc2c1NC(=O)CN1CCN(CCO)CC1)OCO3	-246	1.1	0.69	13	6	5	-1.3	i	1
CCN1/C(=C2\OC(=S)N(C)C2=O)Sc2ccccc21	-20	5.0	0.74	4	nt	nt	nt	nt	5
O=c1n(Cc2ccccc2)c(O)c2n1Cc1ccccc1N=C2c1ccc(C(F)(F)F)cc1	nt	0.6	nt	nt	-4	-22	-4.0	i	nt
C=CCNC(=O)c1ccc(N(C)S(=O)(=O)c2ccc(OC)cc2)cc1	-0.2	-2.4	0.62	nt	nt	nt	nt	nt	-7
CSc1snc(SCC(N)=O)c1C#N	2.5	0.4	0.74	-29	nt	nt	nt	nt	-2
CCN(CC)S(=O)(=O)c1ccc2c(c1)nc(SC(C)C(N)=O)n2-c1ccc(OC)cc1 (stereo unspecified)	1.3	0.8	0.8	-7	nt	nt	nt	nt	-4
CC(=O)N1CCOCCOCCN(C(C)=O)CCOCCOCC1	1.4	-1.5	0.71	-6	10	5	-0.2	i	0
CCOC(=O)c1c(NC(=O)Cn2nnc3ccccc32)sc2c1CCC(C)C2 (stereo unspecified)	4.8	3.5	0.76	-1	nt	nt	nt	nt	-1
Cc1cccc(CC(=O)N2CCN=C2SCc2ccc([N+](=O)[O-])cc2)c1	0.2	-1.4	0.7	?	-1	2	-2.3	i	9
Cc1ccc(NC(=O)C(=O)NCCN2CCN(S(C)(=O)=O)CC2)cc1C	-1.1	5.8	0.71	1	14	13	1.0	nt	-6
COc1cc(C(=O)Nc2cc(Cl)ccc2-n2cncn2)ccc1OC(F)F	-0.6	2.3	0.71	-12	0	4	-0.7	i	-7
CC(C)(NO)/C(=N/O)c1ccc(Br)cc1	nt	2.2	nt	6	nt	nt	nt	nt	-3
N#C/C(=C\c1cccc(NC(=O)c2ccccc2Cl)c1)C(=O)NCCc1ccccc1	4.1	1.4	0.75	8	nt	nt	nt	i	43*
CCOc1ccc(Cl)cc1S(=O)(=O)N1CCC(C(=O)NCC2CCCO2)CC1 (stereo unspecified)	4.6	0.7	0.66	2	1	3	-1.9	i	-8
Cc1ccc2nc(SCC(=O)N3CCOCC3)[nH]c2c1	1.8	1.4	0.71	0	nt	nt	nt	nt	-2
Cc1cccc(Oc2cc(N)cc([N+](=O)[O-])c2)c1	6.6	1.2	0.69	-4	nt	nt	nt	i	6
CCCn1ncc(C(=O)NC2CCCN(Cc3ccc(Cl)cc3)C2)c1C (stereo unspecified)	5.0	0.0	0.66	-2	4	7	2.8	i	-10
O=C(c1ccco1)N1CCN(Cc2ccc(F)cc2Cl)CC1	4.0	-2.3	0.65	-7	2	-1	-0.4	i	-4
Cc1ccc(S(=O)(=O)CCC(=O)Nc2nnc(-c3cccs3)o2)cc1	-3.2	-0.1	0.66	-3	10	7	1.5	i	4
COC(=O)C1=C(C(=O)OC)[C@@H]2Nc3ccccc3[C@@]23C[C@@H](C(=O)OC)N(C(=O)c2cccs2)C3=N1	5.3	-0.9	nt	-9	3	1	-1.3	i	40
COCCOc1ccc(C(F)(F)F)cc1NC(=O)Cc1ccc(S(=O)(=O)N2CCOCC2)s1	2.4	-1.2	0.72	-3	4	2	1.3	i	0
CCCc1cc(=O)n2[nH]c(NCc3cccs3)nc2n1	3.3	-2.3	0.67	-7	nt	nt	nt	nt	-4
Cc1cccc(NC(=O)c2sc3nc(N4CCOCC4)c4c(c3c2N)CCCC4)c1	-240	-2.0	0.72	-6	5	7	0.5	i	5
Cc1onc(-c2c(Cl)cccc2Cl)c1C(=O)N[C@@H]1C(=O)N2[C@@H]1SC(C)(C)[C@@H]2C(=O)O	2.6&1.1	-0.2&0.4	0.65	0	10&11	19&15	0.5&-0.1	i	11&2
O=C1Nc2ccccc2C1(O)Cc1ccncc1 (stereo unspecified)	6.0	0.6	0.77	1	nt	nt	nt	nt	-2
Cc1ccc(OCC(=O)N2C(C)CCCC2C)c([N+](=O)[O-])n1 (stereo unspecified)	0.2	-0.9	0.71	-14	-2	4	-0.4	i	-3
CCCCc1ccc(S(=O)(=O)Nc2cc(C)on2)cc1	3.3	-0.3	0.7	0	nt	nt	nt	nt	3
O=C(COC(=O)c1ccccc1F)NNC(=O)c1ccccc1	3.2	1.4	0.7	-26	19	18	2.7	i	-1
C/C=C\C=C/C(=O)Nc1cccc(C2=NOC3(C2)C[C@@H](C(N)=O)N(C(=O)COc2ccc(Cl)cc2)C3)c1 (stereo partly specified)	2.1	12	nt	-2	6	12	14	i	4
O=C(C1COc2ccccc2O1)N1CCN(c2nc3ccccc3s2)CC1 (stereo unspecified)	4.3	4.1	0.71	-33	-32	-31	-6.7	i	9
CCOc1ccc(-c2c(=O)n(OCc3ccccc3Br)c3ccccc3[n+]2[O-])c(OCC)c1	-2.1	-2.3	0.67	26	-1	-2	1.0	i	-6
O=C(CN(CCO)c1ccccc1)Nc1cccc(S(=O)(=O)N2CCCC2)c1	-3.1	-1.1	0.65	-3	-23*	-9.8*	-1.0*	i	-3
COc1cc(C)c2occ(/C(C)=N\O)c2c1	nt	-1.4	nt	0	nt	nt	nt	nt	6
CC(C)C1Oc2ccccc2N(CC(=O)NC2CCCCC2)C1=O (stereo unspecified)	4.0	0.3	0.7	-8	3	-11	0.1	i	-3
Cc1nc(NC(=S)NC(=O)c2ccccc2)sc1C	0.9	-3.4	0.69	0	15	3	-2.6	i	-1
COc1ccccc1/C=C/C(=O)Nc1cccc(C(C)=O)c1	0.4	0.9	0.68	-8	-5	-12	-6.0	i	5
Cc1cc2c(c(N)n1)c(=O)oc1ccccc12	-35	-0.8	0.67	-6	nt	nt	nt	nt	1
C[C@H](CO)N1C[C@H](C)[C@@H](CN(C)C(=O)Nc2ccc(C(F)(F)F)cc2)Oc2c(NC(=O)Nc3ccc4c(c3)OCO4)cccc2C1=O	3.6	0.4	nt	-7	14&-3	13&-5	-4.1&0.2	i	17
Cc1ccccc1SCC(=O)Nc1cc(C(F)(F)F)ccc1N1CCOCC1	1.0	0.8	0.65	-1	nt	nt	nt	nt	3
COc1ccc(CNc2ccc3c(c2)ncn3C)cc1OC	-3.7	-2.7	0.68	31	10	13	-0.7	i	-7
Cc1cc(/C=C(\C#N)C(=O)NCCc2c[nH]c3ccccc23)c(C)n1C	1.9	1.6	0.68	33	-38*	-30*	-2.5*	i	1

Molecules above that contain a thiophene ring, fused or not, in the order listed:
SMILES	UCH37 inh	HNF4A DNA FP	Ecoli growth	ALR inh	rRNA inh HTS	rRNA inh HTS OD600	rRNA inh HTS RFP	FGF22 binding	Beta2AR agonist
CCC(=O)N1N=C(c2cccs2)CC1c1ccc(C)cc1 (stereo unspecified)	-18	7.4	0.67	-3	-32	-62	4.9	i	-5
Cc1ccc2nc(SCc3nnc(-c4cccs4)o3)[nH]c2c1	0.0	1.2	0.64	-7	nt	nt	nt	nt	-6
C=CCn1c(SCC(=O)N(CCO)CCO)nc2sc3c(c2c1=O)CCC3	4.1	-1.8	0.68	36	-1	10	-4.9	i	-5
CCOC(=O)c1c(NC(=O)Cn2nnc3ccccc32)sc2c1CCC(C)C2 (stereo unspecified)	4.8	3.5	0.76	-1	nt	nt	nt	nt	-1
Cc1ccc(S(=O)(=O)CCC(=O)Nc2nnc(-c3cccs3)o2)cc1	-3.2	-0.1	0.66	-3	10	7	1.5	i	4
COC(=O)C1=C(C(=O)OC)[C@@H]2Nc3ccccc3[C@@]23C[C@@H](C(=O)OC)N(C(=O)c2cccs2)C3=N1	5.3	-0.9	nt	-9	3	1	-1.3	i	40
COCCOc1ccc(C(F)(F)F)cc1NC(=O)Cc1ccc(S(=O)(=O)N2CCOCC2)s1	2.4	-1.2	0.72	-3	4	2	1.3	i	0
CCCc1cc(=O)n2[nH]c(NCc3cccs3)nc2n1	3.3	-2.3	0.67	-7	nt	nt	nt	nt	-4
Cc1cccc(NC(=O)c2sc3nc(N4CCOCC4)c4c(c3c2N)CCCC4)c1	-240	-2.0	0.72	-6	5	7	0.5	i	5
